2A StopGo – lowers the luciferase signal of an FMDV 2A StopGo reporter | human cells with a luciferase reporter of 2A StopGo recoding; control for the full effect not named in the record | Potency, µM (top dose mostly 57.9 µM), for the others: top-dose signal change, negative = less light | 1.2% of 410,000 active | AID 1159524; active = well fitted falling curve with a large enough effect; inconclusive = small, poorly fitted or top-dose-only effect; inactive = no such curve, though single readings can be large or run the other way; tested in HEK293T cells; note: % is set by controls: 0 for no effect and ±100 for the full control effect; nearly all actives have a fitted effect of over 45% in size; luciferase light after 4 h
RE007 growth inh – less growth of the S. pombe RE007 Vpr strain | Potency, µM (titrated, usually from 92.2 µM), for the others: at the top dose activity change, negative = less growth | 0.21% of 360,000 active | S. pombe RE007 Vpr strain, BacTiter-Glo ATP luminescence, 24 h; control for the full effect not named in the record | AID 651644; active = well fitted falling curve with a large enough effect; inconclusive = small, poorly fitted or top-dose-only effect; inactive = no such curve, though single readings can be large or run the other way;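 note: % is set by controls: 0 for no effect and ±100 for the full control effect; nearly all actives have a fitted effect of over 50% in size; the assay follows cell death caused by Vpr and the record does not say whether a fall means rescue or toxicity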
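Fission yeast RE007 carrying one integrated HIV-1 vpr copy, seeded at OD 0.01 in PMG+AL medium with 23 nL pinned compound. Grown 24 h at 30 degrees; viability read by BacTiter-Glo luminescence after 5 min.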
SARS PLP yeast – blocks SARS-CoV papain-like protease in a yeast assay. S. cerevisiae expressing SARS-CoV PLpro, growth rescue; control for the full effect not named in the record. Potency, µM (doses to about 32.9 µM), for the others: top-dose activity, positive = growth rescue. 0.19% of 330,000 active. AID 485353; active means well fitted rising curve with a large enough effect; inconclusive means small, poorly fitted or top-dose-only effect; inactive means no such curve, though single readings can be large or run the other way; note: 0% is about no effect; nearly all actives have a fitted effect of over 55% in size; growth read by luminescence after 48 h
The depositor's hits bear a star; u = inconclusive; & = joins results of further samples; [ ] = remark or other dose. Potency is the fitted concentration of half-maximal effect. The list is partial; rates above refer to the full screens.

SMILES | 2A StopGo | RE007 growth inh | SARS PLP yeast
O=C1CCCC/C=C\C[C@H](CC(=O)N(CCO)Cc2ccccc2)C(=O)N[C@@H](c2ccccc2)CO1 | -17% | -13% | 4%
Cc1cc(C(=O)Nc2cccc(S(=O)(=O)N3CCCC3)c2)c2ccccc2n1 | u | -9% | 2%
CCCN1CCC(NC(=O)Nc2cc(Cl)ccc2OC)CC1 | -12% | -1% | 1%
CCOC(=O)[C@H]1[C@H]2COc3cc(OC)ccc3[C@@H]2N2C(=O)CN(Cc3ccccc3)C(=O)[C@@]12C | -7% | 14% | 3%
CCN(CC(=O)Nc1cc(Cl)ccc1C)C(=O)c1ccc(N2CCCC2=O)cc1 | -8% | -14% | 12%
CCN(C(=O)CO/N=C/c1ccc(OC)cc1OC)c1c(N)n(Cc2ccccc2)c(=O)[nH]c1=O | -17% | 10% | 0%
O=S(=O)(Nc1ccc(-n2cnnn2)cc1)c1cccs1 | 6% | 6% | 2%
CC(C)N(C(=O)COC(=O)[C@H](C)NC(=O)c1ccco1)c1ccccc1 | -2% | -10% | -1%
O=C(O)C1CCN(C(=O)CSc2nnc3ccccn23)CC1 | -6% | -13% | 3%
O=C(CN1C(=O)NC2(CCCCCCC2)C1=O)NCc1ccccc1Cl | -3% | 2% | 1%
CCS(=O)(=O)n1c(Cc2cccs2)nc2ccccc21 | 0% | 1% | -7%
CNC[C@H]1Oc2c(NS(=O)(=O)c3ccc(OC)cc3)cccc2C(=O)N([C@H](C)CO)C[C@@H]1C | 22% | 6% | 0%
Cc1ccc(NC(=O)C(c2ccccc2)N2CCN(CC(=O)N3CCOCC3)CC2)cc1 (configuration not stated) | 33%[activator] | 2% | -1%
COc1ccc(S(=O)(=O)Nc2ccc3c(c2)C(=O)N([C@H](C)CO)C[C@H](C)[C@@H](CN(C)C(=O)Nc2ccc4c(c2)OCO4)O3)cc1 | 7% | 5% | -1%
Cc1sc2ncnc(SCC(=O)NCC3CCCO3)c2c1C (configuration not stated) | -3% | -2% | 7%
O=C(NC(N1CCOCC1)C(Cl)(Cl)Cl)c1cc([N+](=O)[O-])cc([N+](=O)[O-])c1 (configuration not stated) | -6% | -7% | 0%
C[C@@]12CCC3[C@@](CCC4[C@@]3(C)CCC[C@@]4(C)C(=O)O)(CC1=O)C2 (some centres not stated) | -16% | -3% | 2%
O=C(c1cccc(S(=O)(=O)Nc2ccccc2Cl)c1)N1CCN(c2ccccc2O)CC1 | 4% | 3% | -6%[6.58 µM]
Cc1ccc(C(=O)OCC(=O)Nc2cccc(S(=O)(=O)N3CCCCC3)c2)o1 | -17% | 1% | 4%
COc1ccc(C2(c3ccc(OC)cc3)NC(=O)N(CC(=O)NC3(C#N)CCCCC3)C2=O)cc1 | -21% | -11% | 2%
O=C(COC(=O)c1ccc([N+](=O)[O-])o1)NCCCc1ccccc1 | -14% | -3% | -7%
CCN(Cc1ccc(OC)c(F)c1)C(=O)/C=C/c1ccc(S(=O)(=O)N2CCOCC2)cc1 | -30% | 3% | 11%
C[C@H](CO)N1C[C@H](C)[C@@H](CN(C)S(=O)(=O)c2ccccc2)Oc2c(NS(=O)(=O)c3ccccc3)cccc2C1=O | 2% | -3% | 3%
Cc1ccccc1OCC(=O)OCC(=O)c1c[nH]c2ccccc12 | -2% | 0% | 1%
O=C(N[C@@H](Cc1ccccc1)C(=O)N1CCN(S(=O)(=O)c2cccc(F)c2)CC1)c1ccco1 | -21% | -13% | -4%
Cc1ccc(C(=O)N2CCN(C(=O)C3CCCO3)CC2)cc1 (configuration not stated) | -7% | 5% | -1%
Cc1ccc(S(=O)(=O)N2[C@@H](c3ccc(Br)cc3)C(C(=O)O)=CC[C@H]2c2cccc(C)c2)cc1 | -22% | 5% | -1%
COc1ccc2cc(-c3ccsc3)ncc2c1 | 38%[activator] | -14% | -2%
CCO[C@@H]1c2c(ccc3ccc(=O)oc23)OC(C)(C)[C@H]1O | -13% | -20% | 3%
Cc1ccc(NC(=O)c2ncn(CC(=O)N[C@H](CO)Cc3c[nH]c4ccccc34)n2)cc1C | 24% | 0% | 5%
Cc1c(Cl)cnc(NC(=O)COC(=O)c2cccs2)c1Cl | -18% | -17% | -11%
O=c1[nH][nH]c(-c2ccccc2)c1C=Nc1ccc(F)cc1F | -11% | 8% | 1%
Cc1nn(CC(=O)NC2(C#N)CCCCC2)c(C)c1[N+](=O)[O-] | -7% | -12% | 5%
CC(NC(=O)CN(C)S(=O)(=O)c1ccc(F)cc1)C1CC2CCC1C2 (configuration not stated) | -15% | 8% | 1%
COC(=O)C1=C(C)N(c2cc(C)cc(C)c2)/C(=C/c2ccc(O)cc2)C1=O | u | -8% | 0%
Cc1ccccc1N1C(=O)C2CCCN2C1=S (configuration not stated) | -22% | -8% | 3%
CCCN(CC(=O)Nc1ccccc1OC)C(=O)c1ccc2ncsc2c1 | -6% | -3% | 10%
CC1CN(C(=O)CNC(=O)COc2ccccc2)CC(C)O1 (configuration not stated) | -11% | -9% | -10%
COc1ccc(CCNC(=O)CCN2C(=O)c3cccc4cccc(c34)C2=O)cc1OC | -12% | 1% | 0%
CCN(c1cccc2ccccc12)S(=O)(=O)c1cccs1 | -19% | -10% | -7%
CN(C)CCNC(=O)c1cccc(S(=O)(=O)Nc2ccccc2F)c1 | 3% | -6% | 1%
Cc1onc(-c2ccccc2Cl)c1C(=O)OCc1cnc(Cl)s1 | u | u | 1%
COc1cc(C(=O)N/C(=C\c2cn(S(=O)(=O)N(C)C)c3ccccc23)C(=O)NCCCO)cc(OC)c1OC | 3% | 1% | -1%
N#Cc1ccccc1OCC(=O)N1N=C(c2cccs2)CC1c1ccco1 (configuration not stated) | 32%[activator] | 2% | -2%
CSCCC(NC(=O)c1ccco1)C(=O)NNC(=O)c1n[nH]c(=O)c2ccccc12 (configuration not stated) | -13% | 0% | -3%
CCN1C(=O)[C@H]2[C@H]3CN=C(SCc4ccc(Cl)cc4)N3[C@@](CC)(C(=O)OC)[C@H]2C1=O | -22% | -17% | -1%
CCCn1nnc(NC(=O)c2ccc(-c3cc(Cl)ccc3Cl)o2)n1 | 2% | 10% | 0%
Cc1ccc(NC(=O)c2ncn(CC(=O)N[C@H](C)c3cccc4ccccc34)n2)cc1C | 2% | 8% | -9%
COc1cc2cnc(-c3ccsc3)c(-c3ccc(F)cc3)c2cc1OC | u | -24% | -6%
O=C(COc1ccccc1Br)N1CCNC1=O | -12% | -22% | 4%
O=C(NCc1cccc(CNC(=O)C(=O)NCc2ccco2)c1)C(=O)NCc1ccco1 | -19% | -8% | 0%
CC(=O)c1sc(NCCOc2ccc(C)cc2)nc1C | 33%[activator] | 7% | 0%
O=C(C[C@H]1C[C@H](C(=O)N2CCCCC2)[C@@]2(CCc3ccccc3)c3[nH]c4ccc(Cl)cc4c3CCN2C1=O)NCCC1=CCCCC1 | 45%[activator] | -2% | 15%
CC1(C)CC(=O)C(C=Nc2ccc(N)cc2)=C(O)C1 | 34%[activator] | -8% | 0%
Cc1cccc2nc(C(=O)Nc3cccc(C(=O)NC4CC4)c3)cn12 | 27% | -5% | -5%
Cc1ccc(C(=O)NCC(=O)OCn2nnc3ccccc3c2=O)cc1 | -16% | -9% | -14%
CCN(C[C@H]1N[C@@](Cc2ccccc2)(C(=O)OC)[C@H]2C(=O)N(C)C(=O)[C@@H]12)C(=O)NC(C)C | -17% | -5% | 3%
O=C1C(Cc2ccccc2)Nc2ncnc(N3CCN(c4ccccc4)CC3)c2N1Cc1ccc(Br)cc1 (configuration not stated) | -17%&0% | -2%&-6% | -2%
COc1ccc([C@H]2CC(=O)C=C(c3ccc4ccccc4c3)C2)cc1OC | -30% | -7% | 1%
Cc1ccc(-c2cc(-c3ccccc3)no2)cc1 | -55% | -4% | 0%

Additional results follow:
SMILES | 2A StopGo | RE007 growth inh | SARS PLP yeast
COc1ccc(OCCOC(=O)c2nc3nccc(C)n3n2)cc1 | -17% | -2% | -3%
Cc1ccc(S(=O)(=O)N(C)C)cc1NC(=O)COC(=O)CN1C(=O)c2ccccc2C1=O | -14% | 1% | -2%
Cc1nn(C)c(C)c1NC(=O)COc1ccccc1C#N | 3% | 14% | 0%
C=CCN1C(=O)/C(=C\c2ccc(OC(=O)c3ccco3)c(OC)c2)SC1=S | 37%[activator] | -6% | -1%
CCOc1cc(-c2nc(C)c(C(C)=O)n2O)ccc1OCC(=O)Nc1ccc(F)cc1 | -19% | -17% | -2%
Cc1cccc(N2N=C(C(=O)N3CC(=O)Nc4ccccc43)CCC2=O)c1 | -9% | 5% | -1%
CCN(CCCNC(=O)CCCOc1cc(=O)n(C)c2ccccc12)Cc1ccccc1 | 14% | -8% | -1%
COc1cccc(C2=CC(=O)C[C@H](c3ccc(F)cc3)C2)c1 | -5% | -12% | -1%
CCCNC(=O)C(Cc1ccccc1F)NC(=O)c1ccccn1 (configuration not stated) | 24% | -1% | 1%
Cc1ccc(NC(=O)CN(C)C(=O)c2ccc(NS(=O)(=O)c3cccc([N+](=O)[O-])c3)cc2)cc1 | 12% | 4% | 2%
CC(C)(C)NC(=O)C[C@H]1C[C@H](C(=O)N2CCCCC2)[C@@]2(C)c3[nH]c4cc(-c5ccco5)ccc4c3CCN2C1=O | -21% | 8% | 10%
COc1ccc(SC[C@H](Cc2ccccc2)N2CC[C@@H](NC(=O)OCc3ccccc3)CCC2=O)cc1 | -8% | 6% | -16%
COc1ccc(S(=O)(=O)N2CCCCCC2)cc1C(=O)N(C)Cc1c(F)cccc1Cl | 23% | 7% | -3%
CC(=O)Nc1ccc(S(=O)(=O)N[C@@H](C)C(=O)N(C)Cc2cccs2)cc1 | -15% | 21% | 0%
Cc1noc(C)c1NC(=O)Nc1cccc2c1O[C@H](CN(C)C(=O)Nc1ccc(C(F)(F)F)cc1)[C@@H](C)CN([C@H](C)CO)C2=O | -10% | -11% | 10%
COc1cccc(OC)c1C1=CC(=O)C[C@H](c2ccc3c(c2)OCO3)C1 | 2% | 25% | 0%
C=CC[C@H](CC(=O)N(CCO)Cc1ccccc1)C(=O)N[C@H](C)COC(=O)[C@@H](CC=C)Cc1ccc(F)cc1 | 0% | 9% | -23%
COc1ccccc1CN1Cc2cccc3c2[C@@H](CC1=O)[C@H](O)[C@H](O)C3 | -18% | 5% | -8%
Cc1ccc(-c2csc(=S)[nH]2)cc1 | 75%[activator] | -21% | -8%
COc1ccc(S(=O)(=O)Nc2cccc3c2O[C@H](CN(C)Cc2ccccc2)[C@@H](C)CN([C@H](C)CO)C3=O)cc1 | 69%[activator] | 11% | -3%

Part of the list above, with values under each structure.
Every second line gives: 2A StopGo	RE007 growth inh	SARS PLP yeast
> CC(C)(C)NC(=O)C[C@H]1C[C@H](C(=O)N2CCCCC2)[C@@]2(C)c3[nH]c4cc(-c5ccco5)ccc4c3CCN2C1=O
    -21%	8%	10%
> COc1ccc(SC[C@H](Cc2ccccc2)N2CC[C@@H](NC(=O)OCc3ccccc3)CCC2=O)cc1
    -8%	6%	-16%
> COc1ccc(S(=O)(=O)N2CCCCCC2)cc1C(=O)N(C)Cc1c(F)cccc1Cl
    23%	7%	-3%

The listing picks up, starting four compounds before the break.
SMILES | 2A StopGo | RE007 growth inh | SARS PLP yeast
C=CC[C@H](CC(=O)N(CCO)Cc1ccccc1)C(=O)N[C@H](C)COC(=O)[C@@H](CC=C)Cc1ccc(F)cc1 | 0% | 9% | -23%
COc1ccccc1CN1Cc2cccc3c2[C@@H](CC1=O)[C@H](O)[C@H](O)C3 | -18% | 5% | -8%
Cc1ccc(-c2csc(=S)[nH]2)cc1 | 75%[activator] | -21% | -8%
COc1ccc(S(=O)(=O)Nc2cccc3c2O[C@H](CN(C)Cc2ccccc2)[C@@H](C)CN([C@H](C)CO)C3=O)cc1 | 69%[activator] | 11% | -3%
CN1CCN(S(=O)(=O)c2cccc(C(=O)O)c2)CC1 | -1% | 12% | 4%
O=C1C=C(c2ccc(C(=O)O)cc2)C[C@@H](c2ccc3c(c2)OCO3)C1 | 54%[activator] | 1% | 4%
CC(=O)CC[C@@H](C)O[C@@H]1OC(C)[C@H](O)CC1O (some centres not stated) | 0% | 2% | 3%
CCOc1ccc(C(=O)COC(=O)Cn2cnc3c2c(=O)n(C)c(=O)n3C)cc1 | -18% | 2% | -4%
CCc1ccc(C(C)NC(=O)COC(=O)c2ccc(-n3cnnn3)cc2)cc1 (configuration not stated) | -15% | 4% | 4%
CCOc1ccc(CN(C)C(=O)CNC(=O)c2sc3ccccc3c2Cl)cc1 | 2% | -12% | 4%
CCCCn1c(N)c(N(C)C(=O)c2ccc(Br)o2)c(=O)[nH]c1=O | -6% | 8% | 0%
CCC[C@@H](CN1CCC[C@H]1CN1C(N)=NC[C@H]1CC(C)C)N1C[C@@H](Cc2ccccc2)N(CCc2ccc(Cl)c(Cl)c2)C1=N | -19% | 22% | -10%
CCC(=O)Nc1nc(-c2ccccc2)nc(SC)c1C(C)=O | 0% | -8% | 1%
CS(=O)(=O)c1ccc2nc(NC(=O)CS(=O)(=O)Cc3ccccc3)sc2c1 | 46%[activator] | -1% | 0%

Screening data deposited in PubChem BioAssay by National Center for Advancing Translational Sciences (NCATS).
